Compound activity as filed in PubChem.
Vif A3G: HIV-1 Vif–A3G interaction blockers – biochemical, TR-FRET, GST-Vif 1-94, biotin-A3G peptide, dose response retest, primary screen (AID 1117319); TR-FRET GST-Vif / biotin-A3G peptide binding; higher % means a stronger effect; test concentration not given here; strong numbers were not always called active; inhibition, %; hits with a dose series show IC50 in µM; hit rate 0.57% among 260,000;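 active = above the screen mean plus three standard deviations and confirmed in dose response; inconclusive = results disagree or hit not tested in dose response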;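 note: Vif residues 1-94 fused to GST binding biotinylated APOBEC3G peptide 110-148; 0% = full assay without inhibitor and 100% = GST in place of GST-Vif; retest series ran down from 100 µM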
B2AR ag: activates human beta-2 adrenergic receptor causing internalization. hit rate 0.43% among 340,000. Am2.2-beta2AR cells, FAP receptor internalization, flow cytometry; reference of the scale not given here. response, % (test concentration not listed);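 active = response above a set limit, near 3 SD of response in nonfluorescent compounds, cut at about 42% in these data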;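 note: stock transfer was 100 nL into about 11 µL; a reference agonist was the positive control; negative values mostly stem from fluorescent compounds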
HNF4A DNA FP: change in binding of human HNF4 alpha to DNA; HNF4a-FITC DNA binding, fluorescence polarization, 1 h; activity change, % at 10 µM; hit rate 0.3% among 360,000; in the data active = activity change above about 30%, passing the limit was not always enough;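 note: controls were the assay level and a saturating level of protein; the project sought stronger binding though the title names inhibitors; some compounds called inactive have numbers as strong as hits; positive values seem to mean higher polarization but the record does not say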
UCH37 inh: blocks the human deubiquitinase UCH37 | AID 588478 | Q9Y5K5 | inhibition, % (concentration not given with the values) | hit rate 0.33% among 330,000 | purified proteasome/UCH37, Ub-AMC cleavage fluorescence;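 active = mean of two replicates above 20%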;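 note: 0% = compound-free wells with enzyme and 100% = wells lacking proteasome; stock transfer was 100 nL into about 20 µL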
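System: Proteasome-associated human UCH37 deubiquitinase; Input: 0.15 nM proteasome in added enzyme buffer; Also added: Ub-AMC substrate from 1 µM stock; Incubation: 30 min compound-proteasome preincubation then 25 min substrate reaction, room temperature; Detection: fluorescence, ex 355 nm, em 460 nm; Read-out: % inhibition of Ub-AMC cleavage fluorescence; Benchmarks: no-proteasome and no-compound wells.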
LANA-H2B inh: blocks KSHV LANA binding to histone H2A/H2B; inhibition, % (no concentration beside the values); cell-free LANA-H2A/H2B peptide, fluorescence polarization; hit rate 0.6% among 320,000; Q9QR71; in the data active = inhibition mostly above about 10%, no sharp cut-off; inactive = mostly below about 6.7%;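 note: stock transfer was 7.5 nL into about 10 µL; 0% = median of vehicle wells and 100% = median of positive control wells; one replicate is shown; the record names a cut of 25% in any replicate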
Target sequence (Q9QR71 whole entry, looked up): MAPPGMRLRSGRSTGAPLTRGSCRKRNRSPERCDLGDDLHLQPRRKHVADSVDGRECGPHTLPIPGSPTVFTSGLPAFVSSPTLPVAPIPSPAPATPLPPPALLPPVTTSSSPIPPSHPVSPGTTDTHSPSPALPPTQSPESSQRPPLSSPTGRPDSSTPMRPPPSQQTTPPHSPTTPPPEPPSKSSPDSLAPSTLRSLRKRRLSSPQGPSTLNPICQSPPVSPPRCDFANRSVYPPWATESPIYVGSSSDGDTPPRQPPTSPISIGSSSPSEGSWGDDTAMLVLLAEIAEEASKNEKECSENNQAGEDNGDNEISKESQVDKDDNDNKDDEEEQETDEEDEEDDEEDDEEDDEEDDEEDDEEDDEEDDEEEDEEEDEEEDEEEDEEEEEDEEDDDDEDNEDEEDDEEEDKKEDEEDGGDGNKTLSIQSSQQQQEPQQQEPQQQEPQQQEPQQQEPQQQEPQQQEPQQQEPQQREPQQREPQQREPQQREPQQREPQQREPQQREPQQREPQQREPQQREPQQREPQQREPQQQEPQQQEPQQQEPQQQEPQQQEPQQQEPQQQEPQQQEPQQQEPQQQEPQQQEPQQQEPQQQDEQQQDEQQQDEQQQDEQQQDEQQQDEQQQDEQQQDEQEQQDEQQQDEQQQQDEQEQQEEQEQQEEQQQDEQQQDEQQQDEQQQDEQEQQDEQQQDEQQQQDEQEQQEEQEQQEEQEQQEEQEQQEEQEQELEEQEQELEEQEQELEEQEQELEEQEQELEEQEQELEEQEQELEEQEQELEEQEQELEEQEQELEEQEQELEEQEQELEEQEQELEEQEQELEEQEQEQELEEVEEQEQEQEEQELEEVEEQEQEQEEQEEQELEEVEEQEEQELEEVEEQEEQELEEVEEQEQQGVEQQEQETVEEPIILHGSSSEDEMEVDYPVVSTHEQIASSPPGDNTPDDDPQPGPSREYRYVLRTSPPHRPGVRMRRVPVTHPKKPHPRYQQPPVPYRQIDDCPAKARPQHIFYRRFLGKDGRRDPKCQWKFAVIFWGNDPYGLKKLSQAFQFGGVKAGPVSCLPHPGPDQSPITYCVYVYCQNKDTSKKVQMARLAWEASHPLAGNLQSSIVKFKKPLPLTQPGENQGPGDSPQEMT
A1 inh: inhibitors of the anti-apoptotic protein A1, read as caspase activation | MEF A1-2A-BIM cells, Caspase-Glo 3/7 luminescence, 3 h; percent of clofoctol response, vehicle zero | caspase activation, % (no concentration beside the values) | hit rate 0.066% among 330,000;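 active = over half of replicate activation scores above 10%, or exactly half above 10 with the replicate mean above 10; inconclusive = replicate mean below 10 yet half the replicates above 10; inactive = over half of replicates below 10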;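 note: wells of about 30 µL received 50 nL stock; many hits fall short of the cut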
Ecoli growth: inhibitors of Escherichia coli growth; OD600, 23 h; stronger effect = lower value; OD600 absorbance (test concentration not listed); hit rate 0.21% among 330,000;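 active = OD600 absorbance below the run mean of sample wells minus 3.6 SD, in any replicate, cut at about 0.56 in these data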;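 note: stock transfer was 300 nL into about 60 µL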
* marks the source's active call; other numbers are inactive results; u = inconclusive; x = no result given; & = joins results of further samples.

SMILES	Vif A3G	B2AR ag	HNF4A DNA FP	UCH37 inh	LANA-H2B inh	A1 inh	Ecoli growth
Cc1ccc(Cl)cc1NC(=S)NCCCSC1CCCCC1	x	0.0	3.4	2.3	-3.4	0.0	0.663
COc1c(C(=O)N2CCCC2)ccc2ccccc12	-2.1%	4.1	-1.5	5.4	0.4	0.9	0.665
CC(C)CC(=O)N1CCC(O)(CS(=O)(=O)Cc2ccccc2)CC1	-1.7%	-12.6	3.5	1.5	1.7	0.4	0.701
CC12CCC(=O)N1C(C(=O)Nc1cc(S(=O)(=O)N3CCCCCC3)ccc1OCC(F)(F)F)CS2 (stereo unspecified)	x	-0.3	8.7	2.8	-0.1	1.4	0.732
Cc1ccc(S(=O)(=O)N2CCCCC2)cc1C(=O)NC1CCCCC1	-3.2%	-0.3	-4.7	-1.9	1.6	1.2	0.717
Cc1ccc2c(COC(=O)c3ccccc3Cl)cc(=O)oc2c1	x	4.1	-2.3	2.7	0.8	-2.7	0.641
Cc1ccc(S(=O)(=O)N2CCC(C(=O)N/N=C/c3cccn3C)CC2)cc1	-4.5%	-11.4	0.2	x	-2.6	0.4	x
Cc1ccccc1OCC(=O)Nc1ccc2c(c1)Cc1ccccc1-2	7.3%	-7.1	-4.1	1.4	-3.0	1.2	0.743
O=C(NCc1nnc(SCC(=O)N2CCCC2)o1)c1ccco1	11.2%	-6.1	3.1	0.0	4.4	-0.9	0.631
CCO[C@H]1OC(C(=O)NC2CC2)=C[C@@H](c2ccc(C(F)(F)F)cc2)[C@@H]1CCCO	20.9%	-2.7	0.5	4.8	-1.9	1.7	x
O=C(CCC(=O)Nc1ccc(F)cc1)N/N=C/c1cc([N+](=O)[O-])ccc1O	x	6.5	1.4	x	3.7	0.4	x
CCCOC(=O)c1ccc(OC(=O)c2ccco2)cc1	4.6%	0.5	-4.2	2.8	-2.7	0.1	0.702
CN(Cc1nc2ccc(Cl)cc2[nH]1)Cc1nc(-c2cnccn2)no1	-1.0%	-2.8	3.6	0.9	-3.0	0.4	0.688
COc1ccc(CCNC(=O)COc2ncnc3ccccc23)cc1	1.8%	-5.9	3.5	0.1	4.2	0.1	0.712
O=C(O)CCCCCN1C(=O)CSC1=S	-5.3%	8.9	-0.1	5.6	-1.8	-0.6	0.767
COc1ccc(C)cc1NC(=O)CN(C)S(=O)(=O)c1ccc2c(c1)CCCN2C(C)=O	1.8%	0.6	3.6	5.9	-1.7	-0.6	0.676
CCOc1ccc(S(=O)(=O)N2CCCCC2)cc1NC(=O)CCNC(=O)c1ccco1	0.9%	-4.2	3.2	4.5	x	x	0.714
O=C(CSc1ccccc1F)OCC(=O)N1CCN(C(=O)c2ccco2)CC1	-1.8%	-10.0	-0.7	0.6	-1.1	0.2	0.707
Cc1noc(C)c1CSc1ccccc1C(=O)Nc1nccs1	-3.2%	7.3	-0.3	6.0	-0.9	1.2	0.736
CN(C)CC(C)(C)CNS(=O)(=O)c1ccc(Cl)s1	x	-1.1	0.2	-1.8	-3.9	-0.4	0.656
Nc1ccccc1Sc1c[nH]c2ccccc12	x	9.5	2.6	4.4	1.0	0.7	0.711
COc1ccc(S(=O)(=O)N2CCOCC2)cc1NC(=O)c1c(-c2ccccc2)noc1C	3.2%	-3.8	-3.8	-1.4	x	x	0.695
COc1cccc(C2Nc3ccccc3NC3=C2C(=O)CC(C)(C)C3)c1 (stereo unspecified)	x	-6.1	-4.1	9.1	1.6	0.7	0.731
Cc1c(Cl)cccc1NC(=O)CNc1cccc(S(=O)(=O)N(C)C)c1	0.1%	-1.2	5.3	2.5	-0.4	1.0	0.674
Cc1cccc(NC(=O)c2ccc3c(c2)OCCO3)n1	0.3%	0.1	-3.3	4.2	-3.3	-7.4	0.7
SMILES	Vif A3G	B2AR ag	HNF4A DNA FP	UCH37 inh	LANA-H2B inh	A1 inh	Ecoli growth
O=C(c1ccc(F)cc1)C1CCN(S(=O)(=O)c2ccccc2)CC1	5.7%	-1.2	-4.4	5.4	-2.2	-0.6	0.71
ONc1cccnc1-n1nc(C(F)(F)F)cc1C(F)(F)F	13.6%	x	x	x	0.3	0.2	x
Cc1ccc(OCC(=O)N/N=C/C=C/c2ccco2)cc1	u	-0.1	-1.4	x	0.4	0.3	x
Cc1ccc(-c2nnn(CC(=O)NCc3ccccc3)n2)c(-n2cnnn2)c1	-3.2%	-13.2	2.2	3.8	1.7	0.1	0.732
CCn1c(COc2cccc(C)c2C)nnc1SCC(=O)N1CCN(c2ccc(OC)cc2)CC1	-0.2%	-12.7	4.2	0.3	-2.0	-0.4	0.696
CCC(=O)N(CCN1CCOCC1)Cc1cc2cc3c(cc2nc1Cl)OCO3	3.8%	0.7	3.8	2.9	0.2	1.2	0.696
COC(=O)c1cccc(-n2c(C)cc(C=O)c2C)c1C	13.6%	3.8	-1.0	2.1	-4.0	-0.1	0.72
CCc1ccc(C2=NN(S(C)(=O)=O)C(c3cccs3)C2)cc1 (stereo unspecified)	1.7%	-473.8	91.6*	0.1	-5.9	1.2	0.72
O=C(CN1C(=O)CCC1=O)NCC12CC3CC(CC(C3)C1)C2	-2.1%	-7.0	-0.5	4.3	1.2	-0.1	0.697
CCOc1ccc(NC(=O)CSc2nc(=O)n(CCCN3CCOCC3)c3c2CCC3)cc1	-2.7%	-12.8	4.5	6.4	-0.3	0.1	0.627
COc1ccc(N(CC(=O)Nc2cccc(C)c2C)S(=O)(=O)c2c(C)[nH]c(=O)[nH]c2=O)cc1	7.6%	2.0	0.0	1.7	3.6	-0.2	0.69
COc1ccc(CN2CCCC(N3CCN(c4ccc(OC)cc4)CC3)C2)cc1 (stereo unspecified)	-1.8%	1.1	-1.1	3.5	5.2	1.0	0.665
CCOc1ccc(C(=O)N2CCN(c3ccccc3)CC2)cc1OCC	5.7%	3.6	11.1	1.8	1.3	0.0	0.712
Cn1c(CSc2nc3ccccc3n2C)nc2ccccc21	-1.7%	-6.5	-1.0	2.7	-0.7	0.3	0.697
Cc1cc(C)c(NC(=O)CN2C(=O)NC3(CCCc4ccccc43)C2=O)c(Cl)c1 (stereo unspecified)	11.0%	-3.6	-3.2	0.9	-5.7	0.7	0.682
CC(C)c1cccc(C2=CC(=O)C[C@H](c3ccc(F)cc3)C2)c1	x	-4.8	0.3	-1.7	1.5	0.4	0.767
O=C(NC1CCN(Cc2ccccc2)C1)c1cccc(S(=O)(=O)N2CCOCC2)c1 (stereo unspecified)	-4.5%	2.1	-8.4	2.2	x	x	0.688
Cc1cc(-c2nnc3n2N=C(c2ccc(-c4ccccc4)cc2)CS3)n[nH]1	-3.9%&0.7%	0.4	1.5	5.4	4.9	-0.8	0.723
CSc1nn2c(C(F)(F)F)cc(C(F)(F)F)nc2c1C(=O)O	u	-2.6	-0.8	6.4	1.1	0.1	0.637
Nc1ncnc2nc(SCC(=O)Nc3ccccc3F)[nH]c12	x	-8.6	0.0	-1.5	-1.5	0.0	0.623
Cc1ccc(-c2nnn(CC(=O)N(CCCO)C(C(=O)NC3CCCC3)c3ccc(Cl)cc3)n2)o1 (stereo unspecified)	x	4.3	-1.2	5.0	-1.9	-0.2	0.715
COc1ccc(C2CC(c3cc(Br)ccc3F)n3nnnc3N2)cc1 (stereo unspecified)	-0.9%	-6.0	-1.6	-7.6	-0.9	0.6	0.762
O=C(C1=NN[C@@H]2C(=O)N(c3cccc(F)c3)C(=O)[C@H]12)c1ccc2ccccc2n1	32.8%	0.7	6.9	x	-6.7	0.5	x
O=C(Nc1ccccc1-c1ccccc1)NC1CC2CCCC(C1)N2Cc1ccc(F)cc1 (stereo unspecified)	8.3%	7.2	-1.4	6.0	5.6	0.6	0.65
S=c1[nH]nc(COc2cccc(Cl)c2)n1Cc1ccccc1	-4.7%	5.9	0.9	0.6	-2.6	0.5	0.658
SMILES	Vif A3G	B2AR ag	HNF4A DNA FP	UCH37 inh	LANA-H2B inh	A1 inh	Ecoli growth
Cc1cc[n+]2n1CC(O)C2 (stereo unspecified)	16.7%	-2.6	1.6	-0.3	-1.3	0.4	0.656
c1ccc(-c2ncc(CSc3nncn3-c3ccccc3)s2)cc1	-1.1%	-0.2	-1.7	4.4	-1.1	0.2	0.782
Cc1ccc(C)c(Nc2ncnc(N)c2[N+](=O)[O-])c1	31.0%	1.3	3.3	x	0.3	0.2	x
O=S(=O)(Cc1ccccc1)c1cnc2ccccc2n1	15.1%	4.3	1.3	-3.8	-4.0	-0.8	0.753
CN(CC(=O)NCCc1ccc(S(N)(=O)=O)cc1)CC(=O)Nc1ccccc1C(F)(F)F	-7.9%	-6.8	-0.6	3.7	0.8	0.3	0.726
COC(=O)C(C)Sc1nnc(Cc2cc(=O)[nH]c(=O)[nH]2)n1-c1ccc(OC)cc1 (stereo unspecified)	7.8%	-17.8	2.9	6.1	x	x	0.68
CSc1ccc(-c2nc(CSCC(=O)NCCCN3CCOCC3)c(C)o2)cc1	-2.0%	0.8	0.6	0.7	-0.4	-0.4	0.72
O=S1(=O)C=CC(Nc2cccc(Cl)c2)C1 (stereo unspecified)	-0.5%	2.7	-1.9	-1.1	-3.7	0.4	0.639
COC(=O)Cc1ccc(NC(=O)c2ccc(NC(=O)c3ccco3)cc2)cc1	7.2%	14.1	-2.8	2.5	3.4	0.8	0.706
COc1cccc(-n2c(SCC(=O)NC3CCCCC3)nc3n[nH]c(C)c3c2=N)c1	7.5%	2.3	-1.4	x	-3.3	0.5	x
O=S(=O)(NCc1ccccc1)NCc1ccccc1	-4.5%	1.6	-2.0	0.4	0.5	0.8	0.713
CC1CCCC(C)N1C(=O)CSc1nnnn1C1CCCC1 (stereo unspecified)	x	-18.4	-1.8	2.5	x	x	0.606
CCn1c(COc2ccccc2C)nnc1SCC(=O)Nc1cc(C)on1	-2.6%	0.2	-0.3	1.5	0.6	0.2	0.674
CCc1nnc(NC(=O)CSc2ccc(-c3ccc(F)cc3)nn2)s1	-6.7%	x	x	x	-0.1	0.4	x
C/C(N)=C(/C#N)C(=O)CSc1nc2ccccc2c(=O)n1-c1ccccc1C	6.7%	11.2	2.5	5.6	-0.7	0.2	0.713
CCC(=O)Nc1nnc(S(=O)(=O)N(C)c2ccccc2)s1	6.6%	25.8	0.4	4.6	-4.9	0.1	0.694
CC(C)C(=O)OC/C(O)=C(\C#N)c1nc2ccccc2[nH]1	8.5%	1.4	22.2	-1.0	2.7	-0.9	0.73
COc1ccc(-c2c(C(F)(F)F)nn(C)c2NC(=O)c2ccco2)cc1	-3.6%	10.9	3.0	3.2	0.1	0.0	0.694
O=C(Nc1ccc(S(=O)(=O)NC2=NCCCCC2)cc1)c1cc(S(=O)(=O)N2CCOCC2)ccc1F	x	1.0	2.7	-1.1	-9.1	0.1	0.739
Cc1cc(=O)oc2cc(OCC#N)ccc12	u	-6.1	-0.1	-42.0	1.3	-1.1	0.68
COC(=O)c1ccccc1S(=O)(=O)N(Cc1ccco1)Cc1cc2cc(OC)ccc2[nH]c1=O	6.6%&6.2%	6.0	1.9	-18.5	-3.5	0.6	0.715
NC(=O)c1ccc(NC(=O)COC(=O)C2(c3cccc(F)c3)CCCC2)cc1	-7.2%	-5.4	-0.8	1.8	1.6	-0.5	0.645
CC1(C)CN(c2cccc(-c3ccnc4ncnn34)c2)C1=O	-3.0%	-16.8	-0.7	-1.6	1.2	0.8	0.7
CC(=O)c1c(N2CCCCC2)nc(=O)n(-c2ccccc2)c1C	0.1%	0.1	1.3	0.3	8.1	0.6	0.772
Cc1c(Br)c(O)c(Br)c2sc(=O)oc12	1.77µM*	3.7	0.1	1.3	-0.8	0.2	0.64
O=C(CCCn1c(=O)[nH]c2cc(Cl)ccc2c1=O)NCCCN1CCN(c2ccc(F)cc2)CC1	u	-4.3	0.2	3.2	-5.0	0.1	0.669
